# Screens (PubChem)
# Six1-Eya2 blk = blocks human Six1 binding to Eya2 | Q15475+O00167 | AlphaScreen GST-Six1/His-Eya2 binding, biochemical; active compounds read low; control for the full effect not named in the record | activity change, % (no concentration beside the values) | actives 0.56% (n = 360,000); in the data active = activity change below about -65%; inconclusive = about -30% to -65%; inactive = above about -30%; note: % is set by controls: 0 for no effect and ±100 for the full control effect
# Target sequence (O00167 whole entry, looked up): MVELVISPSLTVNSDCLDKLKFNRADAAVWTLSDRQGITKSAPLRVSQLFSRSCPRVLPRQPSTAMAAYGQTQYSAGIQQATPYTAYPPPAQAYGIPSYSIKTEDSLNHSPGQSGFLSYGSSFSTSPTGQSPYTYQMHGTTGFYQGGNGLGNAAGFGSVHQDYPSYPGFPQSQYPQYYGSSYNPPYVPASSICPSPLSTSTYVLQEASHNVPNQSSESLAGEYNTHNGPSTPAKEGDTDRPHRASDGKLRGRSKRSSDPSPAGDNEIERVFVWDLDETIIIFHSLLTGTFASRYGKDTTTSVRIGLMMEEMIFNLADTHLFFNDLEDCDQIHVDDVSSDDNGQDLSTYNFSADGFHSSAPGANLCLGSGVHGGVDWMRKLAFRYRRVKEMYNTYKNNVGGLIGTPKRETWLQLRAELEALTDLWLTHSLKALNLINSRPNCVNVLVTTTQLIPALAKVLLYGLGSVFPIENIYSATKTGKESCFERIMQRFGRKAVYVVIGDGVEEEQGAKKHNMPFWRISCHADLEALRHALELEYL
# Target sequence (Q15475 whole entry, looked up): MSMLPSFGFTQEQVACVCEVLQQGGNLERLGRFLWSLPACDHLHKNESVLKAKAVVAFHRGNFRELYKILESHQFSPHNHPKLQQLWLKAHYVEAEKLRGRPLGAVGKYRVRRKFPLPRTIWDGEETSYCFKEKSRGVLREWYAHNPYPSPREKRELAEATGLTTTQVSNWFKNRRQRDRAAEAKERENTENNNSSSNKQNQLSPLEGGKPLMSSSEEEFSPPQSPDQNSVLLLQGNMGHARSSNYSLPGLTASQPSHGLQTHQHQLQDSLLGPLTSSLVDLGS
#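 Six1/Eya2 binding was read as AlphaScreen signal after compounds were pinned into GST-Six1 plus His-tagged Eya2 (5X stock 250/500 nM) in pH 8.0 Tris/NaCl/TCEP buffer, beads added, then incubated 1 h, 37 C, dark.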
# TRPV1 PAM = potentiators of human vanilloid receptor 1 (TRPV1) | TRPV1-expressing cells, Fluo-8 calcium influx, capsaicin EC20 potentiation; host cell line not named in the record; control for the full effect not named in the record | potentiation, % at 8.33 µM | Q8NER1 | actives 0.02% (n = 320,000); active means potentiation above 80%; inconclusive means 30% to 80%; inactive means below 30%; note: 0% is about no effect
#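 Cells expressing TRPV1 were dye-loaded with Fluo-8 and read kinetically: 10 s baseline, 3 min after compound (agonist portion), then 2 min after EC20 capsaicin (allosteric enhancer portion). Calcium-bound dye fluorescence at 480/520 nm.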
# CtBP-E1A inh = blocks the CtBP interaction with E1A | activity change, % (test concentration not listed) | AlphaScreen GST-E1A/His-CtBP binding, 1536-well; active compounds read low; control for the full effect not named in the record | AID 651724 | actives 0.49% (n = 340,000); in the data active means activity change below about -65%; inconclusive means about -30% to -65%; inactive means above about -30%; note: % is set by controls: 0 for no effect and ±100 for the full control effect
#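 In 5 uL wells, 23 nL compound meets equimolar GST-E1A and His-CtBP (5X stock 125 nM each) for 2 h, 37 °C. Beads (5X, 50 ug/mL) then 1 h, 37 °C, dark.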
# D2 ag = activates the human D2 dopamine receptor; P14416; DiscoveRx PathHunter D2 beta-arrestin, luminescence, 90 min; 100% = 57 uM dopamine signal; activation, % (concentration not given with the values); actives 0.084% (n = 360,000); in the data active = activation above about 40%; inconclusive = about 15% to 40%; inactive = below about 15%; note: compound concentration not given in the record; the text of the record calls up to 30% inactive
#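 DiscoveRx PathHunter D2 beta-arrestin cells (2,100/well) attached overnight, then compound-stimulated 90 min at 37 C in HBSS/10 mM HEPES/0.1% Tween-20 buffer; beta-galactosidase complementation read by luminescence after 1 h at ambient temperature. Dopamine 57 uM final (EC100) as control.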
# Sfp PPTase inh = blocks B. subtilis Sfp PPTase activity | Biochemical Sfp PPTase activity, qHTS | Potency, µM, without a hit: max response, negative = inhibition, actives largely listed as inhibitors | AID 1490 | actives 3.5% (n = 310,000) | Q9F4F7; active = well fitted inhibition curve with a large enough effect; inconclusive = small, poorly fitted or top-dose-only effect, or another doubt; inactive = no such curve, though single readings can be large or run the other way;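 note: the enzyme is Sfp with the accession as filed and its product quenches rhodamine fluorescence; potency is the fitted concentration of half-maximal effect; 0% = enzyme reaction without inhibitor and -100% = no enzyme wells; top concentration of the series not given in the record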
#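 With Hepes-Na pH 7.6 buffer containing 10 mM MgCl2, Sfp (15 nM) modified BHQ-2-YbbR (12.5 uM) using rhodamine-CoA (5 uM). Two reads 30 minutes apart at 525/598 nm yielded each well's rate.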
# PINK1 modulator = changes PINK1 expression. actives 0.2% (n = 410,000). Potency, µM (series often up to 76.6 µM), inactives show at the top dose activation (PINK1 increase), actives largely listed as activators. PINK1 immunofluorescence, high-content cytometry, 24 h. AID 624263; active = well fitted activation curve with a large enough effect; inconclusive = small, poorly fitted or top-dose-only effect; inactive = flat fitted curve, though single readings scatter; cell line not stated here;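 note: potency is the fitted concentration of half-maximal effect; % of control where 0% means no effect; nearly all actives have a fitted effect of over 65% in size; a mitochondrial uncoupler was the plate control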
#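 Compound titrations (5 concentrations, 24 h) on a stable cell line; DMSO and CCCP controls. Endpoint: fixed-cell PINK1 immunofluorescence with mitochondrial, cell and nuclear markers, scanned by microplate cytometer.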
# D2 PAM = positive allosteric modulators of human D2 dopamine receptor; P14416; DiscoveRx D2 beta-arrestin cells, luminescence, 90 min; 100% = 57 uM dopamine signal; potentiation, % (no concentration beside the values); actives 0.23% (n = 360,000); active = potentiation of 50% or more; inconclusive = 30% to 50%; inactive = 30% or less;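 note: compound concentration not given in the record; tested on top of an EC20 dose of dopamine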
#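 D2 cells co-treated with compound plus 50 nM dopamine (EC20) for 90 min at 37 deg C to detect potentiation. Beta-arrestin recruitment was read as enzyme-fragment luminescence after 1 h at ambient temperature. Full response was set by 57 uM dopamine.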
# Numbers without * were called inactive; ? = inconclusive; nt = no result given; & = joins results of further samples; [ ] = dose if it differs, or a comment.
SMILES,Six1-Eya2 blk,TRPV1 PAM,CtBP-E1A inh,D2 ag,Sfp PPTase inh,PINK1 modulator,D2 PAM
C=CC#CC1(O)CC(C)[N+](C)(C)CC1C (stereo not given),-5,8,-24,-2.8,40µM*,-2.9%,-2
Cc1ccc(OCC(O)CN2CCOCC2)c(C)c1 (stereo not given),2,4,nt,-3.6,6%,1.9%,11
O=c1cc(-c2cccc(F)c2)oc2ccccc12,-6,nt,-5,-3.6,nt,-2.6%,-9
NC(=O)[C@@H]1CCCN1Cc1nc(Cc2ccccc2F)no1,11,-4,nt,-0.5,7%,1.3%,-8
Oc1ccccc1N=Nc1nc(-c2ccccc2)c(-c2ccccc2)[nH]1,-67*,1,?,-22,3%,?,-45
CCN(CC)S(=O)(=O)c1cc(NC(=O)C(C)N2CCc3ccccc32)ccc1C (stereo not given),-29,-5,-25,1.3,8%,0.3%,-5
Cn1cc(Cl)c(C(=O)NC2CCCC2)n1,19,-6,5,-2.4,7%,-0.5%,-3
Cc1ccc(C(=O)Cn2nnc(-c3cccs3)n2)cc1,2,6,7,0.5,12%,-0.3%,-9
CCc1nnc(NC(=O)CSc2nc3[nH]ncc3c(=O)[nH]2)s1,6,2,-4,-1.6,8%,6.3%,-4
OC[C@@H]1CN(Cc2ccncc2)C[C@H](n2cnc3c(NCc4ccco4)ncnc32)O1,3,nt,-5,3.6,nt,1.0%,1
O=C(CCNC(=O)Cn1ccc2ccccc2c1=O)NCCN1CCc2ccccc2C1,6,0,-1,-0.1,-14%,-2.0%,-7
Cc1ccc(S(=O)(=O)Nc2cccc(C(=O)NCC(c3ccccc3)N(C)C)c2)cc1F (stereo not given),0,?,-13,-2.7,nt,-0.2%,-4
COc1cccc(C(=O)N(Cc2ccc3c(c2)OCO3)Cc2nc3ccccc3c(=O)[nH]2)c1,-4,4,-6,-3.2,-12%,-0.5%,9
O=C(NCC1CCCO1)Nc1cccc(Cl)c1 (stereo not given),3,-4,4,-0.9,9%,-0.7%,-20
c1c[nH]c(CN2CCN(Cc3ncc[nH]3)CC2)n1,-25,nt,-5,-3.4,nt,-4.1%,-4
CN(CC(=O)Nc1cccc(S(=O)(=O)N2CCCC2)c1)CC(=O)Nc1ccc(F)c(F)c1F,5,nt,-5,-1.1,nt,-2.8%,5
CCC1=Nc2cc(C(=O)NCCCOC(C)C)ccc2Sc2ccccc21,-3,-14,-16,-4.7,1%,-0.7%,-9
Cc1nc(SCc2c(F)cccc2Cl)n[nH]1,11,-5,17,4.4,2%,-0.7%[38.3 µM],-3
CC1CC(C)CN(CCCNC(=O)CC2Oc3ccccc3NC2=O)C1 (stereo not given),7,-3,-24,-5.7,11%,0.5%,-10
CC(Oc1ccccc1)C(=O)Nc1ccc(C(N)=O)cc1 (stereo not given),-15,-13,-15,-1.4,8%,6.3%[38.3 µM],-10

# Given with two lines to a compound: entries from further up
# Value order – Six1-Eya2 blk	TRPV1 PAM	CtBP-E1A inh	D2 ag	Sfp PPTase inh	PINK1 modulator	D2 PAM
Cc1nc(SCc2c(F)cccc2Cl)n[nH]1
→ 11	-5	17	4.4	2%	-0.7%[38.3 µM]	-3
CCC1=Nc2cc(C(=O)NCCCOC(C)C)ccc2Sc2ccccc21
→ -3	-14	-16	-4.7	1%	-0.7%	-9

# More records.
SMILES,Six1-Eya2 blk,TRPV1 PAM,CtBP-E1A inh,D2 ag,Sfp PPTase inh,PINK1 modulator,D2 PAM
CCN(CC)c1ccc2cc(-c3nc(-c4cc5ccccc5oc4=O)cs3)c(=O)oc2c1,5,nt,2,-2.9,nt,32µM*,-6
CCOc1ccccc1-n1nnnc1SC(C)C(=O)OC (stereo not given),5,2,4,-6.6,18%,0.3%,4
COC(=O)C(C)Sc1nnc(Cc2cc(=O)[nH]c(=O)[nH]2)n1-c1ccc(OC)cc1 (stereo not given),-3,nt,3,-3.5,4%,1.2%,-4
CCCCc1nnc(NC(=O)c2oc3ccccc3c2C)s1,1,-7,-7,3.0,nt,4.4%,-6
CCCOc1cccc(C(=O)NCCCNC(=O)c2cccnc2)c1,17,10,6,-0.8,2%,-1.6%,-21
COc1ccccc1C=NN=Cc1ccccc1O,12,nt,29,-0.6,nt,3.2%,-5
CC(C)OCCCNc1ccc(N2C(=O)CCCC2=O)cc1[N+](=O)[O-],-4,-1,-10,-7.0,8%,-1.6%,-2
CCN(c1ccccc1)S(=O)(=O)c1ccc(C(C(=O)OC)C(=O)OC)c([N+](=O)[O-])c1,-7,-4,-1,0.9,5%,0.6%,-4
O=c1oc(CCO)cc2ccccc12,-11,nt,-1,-2.1,nt,0.2%,-2
CCn1cnc2c([N+](=O)[O-])c(NS(=O)(=O)c3ccc(C)cc3)ccc21,-5,19,nt,-2.1,nt,-0.1%,-26

# Ordered by value in D2 ag (ascending): some entries from above
mol	D2 ag
c1c[nH]c(CN2CCN(Cc3ncc[nH]3)CC2)n1	-3.4
O=C(NCC1CCCO1)Nc1cccc(Cl)c1 (stereo not given)	-0.9
CCCCc1nnc(NC(=O)c2oc3ccccc3c2C)s1	3.0

# (cont.)
SMILES,Six1-Eya2 blk,TRPV1 PAM,CtBP-E1A inh,D2 ag,Sfp PPTase inh,PINK1 modulator,D2 PAM
O=C1C(Br)=Cc2cccc3cccc1c23,?,8,-5,-9.9,-12%,3.6%,-23
O=C(O)CNC(=O)C1(NC(=O)OCc2ccccc2)CCCC1,10,nt,3,4.4,nt,-1.8%,-19
O=C(O)CNS(=O)(=O)c1ccc2c(c1)CCCC2,4,-6,-1,0.1,14%,1.3%,-1
Cc1ccc(C(=O)Nn2c(N)c(S(=O)(=O)c3ccc(C)cc3)c3nc4ccccc4nc32)cc1,-1,0,-13,1.1,7%,4.5%,1
COc1cc(C=O)ccc1OCCCOc1ccccc1[N+](=O)[O-],-12,-1,-1,4.2,14%,0.0%,8
Cc1cc(C)nc(NC(=O)c2cccs2)c1,-1,14,nt,2.4,11%,1.6%,4
COc1ccc(C(OC(=O)c2ccco2)C(=O)NC2CCCCC2)cc1OC (stereo not given),5,-8,-7,0.1,12%,-2.8%,-21
COc1ccccc1CNC(=O)N1CCN(c2ccccc2)CC1,-1,-23,1,2.1,19%,1.3%,-5
O=C(CS(=O)(=O)Cc1ccccc1)N1CCc2ccccc21,-1,-31,3,-2.9,3%,-4.7%,-9
COc1ccccc1NC(=S)N/N=C/c1cccc(C)c1,-9,-2,-18,-2.3,8%,9.9%,-4
O=C(CCc1ccccc1)Nc1cccc([N+](=O)[O-])c1,-1,-23,-10,-2.5,-3%,-0.6%,-9
CCOC(=O)c1c(C)[nH]c(C(=O)CSc2nnc(Nc3ccccc3F)s2)c1C,1,7,1,0.0,?,0.6%,-17
N/C(=N\c1nc2ccccc2o1)NC(=O)c1ccccc1,3,-7,5,8.3,19%,2.8%,-11
CNC(=O)CCCCC(=O)N/N=C/c1ccc(Cl)cc1Cl,0,-22,5,-4.1,2%,-0.5%,0
O=C(Cn1cc(Cl)ccc1=O)c1ccc(Cl)cc1,0,-4,0,1.2,9%,-1.3%,-9
CCCn1c(=O)c(C(=O)Nc2cccc(C)n2)c(O)c2ccccc21,5,3,0,3.6,-2%,2.3%,-3
O=C(CSc1nnc(-c2ccccc2)c(-c2ccccc2)n1)Nc1ncc(Cl)cc1Cl,11,-4,1,0.7,-26%,0.4%,-4
C=CCC1S/C(=N/N=C/c2cccs2)NC1=O (stereo not given),-1,?,nt,2.1,4%,0.1%,12
O=C(CC(=O)N/N=C\c1ccc(F)cc1)NCCc1ccccc1,-1,-13,3,0.9,15%,-0.7%,-7
Cc1nn(S(=O)(=O)c2ccccc2)c(C)c1Sc1ccc([N+](=O)[O-])cc1,-1,6,1,-1.2,8%,-3.2%[38.3 µM],-5
O=C(N/N=C/c1ccco1)c1cccc(S(=O)(=O)Nc2ccccc2Cl)c1,?,11,3,-4.6,1%,-2.4%,-8
COc1ccc(/C=C/C(=O)Nc2ccc(S(=O)(=O)Nc3onc(C)c3C)cc2)cc1OC,-25,-7,?,-7.2,4%,-1.4%,15
CCNC(=O)C1CCCN(C(=O)c2ccc(-c3ccccc3)cc2)CC1 (stereo not given),0,nt,8,-4.7,nt,-0.1%,-10
O=C(CSc1nnc(-c2ccccc2)o1)Nn1cnnc1,-4,-4,-7,0.9,-14%,-0.2%[38.3 µM],3
COc1ccc(-n2nc(C(=O)NCC(=O)N(C)Cc3ccccc3)c3ccccc3c2=O)cc1,-4,-1,2,14,-4%,1.3%,13
CCOC(=O)/C(C#N)=C\C1=C(N2CCCC2)CC(C)(C)OC1,-1,-16,1,-0.7,-13%,-1.8%,-16
O=C(O)CC/C(=N\Nc1ccccc1[N+](=O)[O-])c1cccs1,-27,-4,?,-8.2,12%,-0.4%,0
CCCCCCCCC(=O)N1C(C)CCC1C (stereo not given),7,nt,-3,-3.5,nt,3.9%,-1
Cc1[nH]c2ccc(C(=O)OCC(=O)NC3(C#N)CCCCC3)cc2c1C,-8,2,-9,-0.6,nt,5.0%,-9
COc1ccccc1C(=O)Nc1ccc(NC(=O)C2CCCCC2)nc1,0,-7,0,-0.1,9%,0.2%,-1
Cc1ccc2[nH]c(-c3cccc(F)c3)cc(=O)c2c1,-3,-6,3,-1.1,-4%&12%,11%,-9
Cc1ccc(NC(=O)C(C)NC(=O)OCc2ccccc2)cc1C (stereo not given),11,nt,10,-1.9,14%,1.8%,-3
Cc1cc(C)n(C(C)Sc2ccccc2)n1 (stereo not given),8,-7,0,-0.6,nt,-0.3%,-4
CCOC(=O)C1NN=C(C(=O)c2ccccc2)C1c1ccccc1 (stereo not given),7,-13,0,-7.7,-20%,0.1%,-27
COC(=O)c1ccc2nc(C3CCCCC3)c(Cc3ccc(OC)cc3C)n2c1,0,nt,0,-4.0,nt,1.0%,-10
CC(C)=NNc1nc2c(c(=O)[nH]c(=O)n2C)n1CCc1ccccc1,?,-2,-29,4.0,?,-3.6%,-1
O=C1N(CN2CCOCC2)c2ccccc2C12OCC(CCl)O2 (stereo not given),9,-10,10,-12,5%,-1.2%,1
Cc1cnc(NC(=O)c2cncc(Br)c2)s1,13,10,11,-0.1,-2%,-0.4%,-1
CCCc1ccc(-c2cc(N)n[nH]2)cc1,-3,7,0,-1.3,11%,0.2%,-10
CNC(=O)c1nc(C)c(C2(C)CC(c3cccc([N+](=O)[O-])c3)=NO2)s1 (stereo not given),-1,8,-1,0.1,21%,0.1%,-3
CS(=O)(=O)N1CCN(S(=O)(=O)c2ccccc2[N+](=O)[O-])CC1,-2,27,nt,6.8,11%,0.4%,-1
